# Source: PubChem BioAssay (ICCB-Longwood Screening Facility, Harvard Medical School)
# HCMV NEC inh: disrupts HCMV UL50-UL53 complex binding; HTRF UL50-UL53 interaction, normalized percent inhibition; inhibition, % (test concentration not listed); 190,000 tested, 0.15% active;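 active = both replicates at 50% or more, plus weaker picks with an unusually low signal ratio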;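 note: stock transfer was 100 nL into about 20 µL; 0% = negative control wells and 100% = wells with untagged competitor protein; inactives centre near -12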
# Sa growth inh: S. aureus growth inhibition | relative growth, % (concentration not given with the values) | AID 720641 | S. aureus RN4220 growth, OD600, 20 h, 42 °C; active compounds read low | 170,000 tested, 0.53% active;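 active = growth at 42 °C up to 50% and 20 or more points under that at 30 °C, or under 10% at both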;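 note: 300 nL library stock went into each well; scaled to the means of positive and negative controls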
# GIV Gai3 FP: GIV-Galpha-i interaction inhibition. percent of control (FP), % (concentration not given with the values). 210,000 tested, 0.42% active. P08753. Galpha-i3/FITC-GIV peptide fluorescence polarization, 90 min; active compounds read low; scaled: aluminum fluoride 0%, vehicle 100%. AID 1224905;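 active = replicate mean at 85% of control or lower, very high polarization wells dropped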;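 note: wells of about 15 µL received 100 nL stock; the first replicate is given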
# Target sequence (P08753 whole entry, looked up): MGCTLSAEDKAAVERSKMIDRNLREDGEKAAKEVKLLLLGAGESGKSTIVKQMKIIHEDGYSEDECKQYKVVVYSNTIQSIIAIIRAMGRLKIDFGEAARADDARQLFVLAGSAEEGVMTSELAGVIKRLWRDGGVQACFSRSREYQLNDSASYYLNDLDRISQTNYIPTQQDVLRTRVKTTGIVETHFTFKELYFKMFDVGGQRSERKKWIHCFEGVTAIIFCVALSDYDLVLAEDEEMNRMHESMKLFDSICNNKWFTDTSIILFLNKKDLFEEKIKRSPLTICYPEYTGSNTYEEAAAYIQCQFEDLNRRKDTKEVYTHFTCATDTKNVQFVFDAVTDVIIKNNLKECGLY
# Sa growth inh second temp: second read-out of Sa growth inh, no call of its own (marks repeat the call); relative growth, %; measured here: growth at 30 °C;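 optical density after 20 h as mean of two plates; 100% = untreated growth and lower means inhibition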
# * = called active by the depositor; / = no result given.
# Every second line gives: HCMV NEC inh	Sa growth inh	Sa growth inh second temp	GIV Gai3 FP
CN(C(=O)COC(=O)Cn1cnc2ccccc2c1=O)c1ccccc1
  -25.6	80.0	90.5	/
Cc1ccc(NC(=O)CSc2nnc(C)c3ccccc23)cc1
  -21.4	/	/	111.5
Cc1ccc(S(=O)(=O)c2cn(C)c3cc(N4CCCC4)c(F)cc3c2=O)c(C)c1
  /	99.9	93.9	105.4
Cc1ccc(OCC(O)CNC(=O)c2ccccc2C(=O)O)cc1 (stereo not given)
  7.3	85.7	103.8	104.2
Cc1ccc(S(=O)(=O)N(CC(=O)Nc2cccnc2)c2cc(C)cc(C)c2)cc1
  /	82.1	70.7	100.9
CCCCc1c(C)[nH]n(-c2nc(C)c(C(=O)Nc3cccc(C)c3C)s2)c1=O
  -13.9	/	/	99.0
COCCCNC(=O)CN1C(=O)c2cccnc2Oc2ccccc21
  -28.1	/	/	102.5
O=C(OCC(=O)N1CCCC1=O)c1cccc(Oc2ccccc2)c1
  -19.4	113.0	96.2	/
Cc1ccc(C)c(NS(=O)(=O)c2cn(C)c(C)n2)c1
  -14.0	/	/	108.1
O=C(NC1CCN(Cc2ccccc2)CC1)C1CCC1
  5.3	112.2	97.3	107.1
CCOC(=O)N1CCN(C(=O)c2ccc3c(c2)ncn3C2CCCC2)CC1
  /	112.0	79.5	104.1
O=C(NCC(c1cccnc1)N1CCN(Cc2ccccc2)CC1)C(=O)Nc1cccc(Cl)c1 (stereo not given)
  -21.2	121.7	94.6	99.3
O=C1C2C3c4ccccc4C(c4ccccc43)C2C(=O)N1CCN1CCNCC1 (stereo not given)
  -44.1	76.0	92.4	102.1
Cc1cc(OC(=O)/C=C/c2ccc(F)cc2)cc(=O)o1
  -10.3	83.4	96.8	/
O=C(CCCc1ccccc1)NC1CC(=O)N(c2ccc(Cl)cc2)C1 (stereo not given)
  /	116.2	83.6	97.2
Cc1ccc2nc3c(cc(C#N)c(=O)n3-c3nnc(SCc4ccccc4)s3)c(=O)n2c1
  -63.6	119.5	80.9	104.4
Cc1cc(CNC(=S)Nc2ccc(S(N)(=O)=O)cc2)nn1C
  -7.7	105.6	99.2	112.1
CCOC(=O)c1c(C)n(C)c2ccc(OCC(O)CNC3CCCCC3)cc12 (stereo not given)
  -0.1	108.0	85.2	110.9
Cc1ccc(C)c(Cn2c(=O)n(Cc3ccccc3)c(=O)c3c2c2cc(C)ccc2n3C)c1
  /	125.3	82.0	108.8
CCOc1ccc(C(=O)Nc2ccc(C(=O)OCc3cc(=O)n4c(C)csc4n3)cc2)cc1
  /	78.5	82.6	99.3
COc1cccc(C(=O)NCC(c2ccc(N(C)C)cc2)N2CCOCC2)c1OC (stereo not given)
  /	110.5	102.5	108.3
CCOCCCN1C(=O)c2c(NC(C)=O)c3cc(OC)ccc3n2CC1(C)C(=O)NC1CCCC1 (stereo not given)
  57.3	/	/	97.0
COc1cc(Br)c(CC2C(=O)N(C)c3ccccc32)cc1OC (stereo not given)
  -4.5	/	/	105.7
COC(=O)c1cc2oc3ccccc3c2n1Cc1nc(-c2ccccc2Cl)oc1C
  -4.5	91.0	91.9	100.4
COc1cc(OC)c(NC(=O)CCCn2nc(C)c3c(C)n(-c4ccccc4)nc3c2=O)cc1Cl
  /	88.7	90.9	102.5
CN(C)c1ccc(/C=N/NC(=O)N/N=C/c2ccc(N(C)C)cc2)cc1
  -17.6	102.6	85.3	105.1
CCn1c(=O)n(CC)c2cc(N3CCCC3)c(NC(=O)C(C)(C)C)cc21
  6.4	89.7	99.0	101.2
CC(C)(C)OC(=O)N1CCC(c2c(C(=O)Nc3ccc4c(c3)OCCO4)cnn2-c2ccccc2)CC1
  /	96.4	88.8	102.7
COc1ccc(C2=NC(c3ccccc3)=Nc3ccc(C)cc3N2)cc1
  -3.7	85.8	91.5	97.7
O=C(Nc1ccc(Cl)cc1)C1COc2ccccc2O1 (stereo not given)
  -1.8	98.6	70.9	104.2
CCCc1nnc2sc(COc3ccccc3OC)nn12
  -1.5	/	/	105.8
CCC(=O)N1CCc2cc(Br)cc(S(=O)(=O)NCCc3cccc(C)c3)c21
  /	114.8	96.3	98.8
O=C(NC1CC1)c1ccc2c(c1)[nH]c(=S)n1c3ccccc3nc21
  -10.9	104.2	76.7	101.7
CC(C)c1ccc(NS(=O)(=O)c2ccc3[nH]cc(C(=O)NC4CCCCC4)c(=O)c3c2)cc1
  -8.9	97.2	64.9	102.3
O=C(OCC(F)(F)C(F)F)c1ccc(O)cc1
  -18.8	98.2	67.0	103.7
Cc1ccc([N+](=O)[O-])cc1S(=O)(=O)N1CCn2cccc2C1c1ccccc1F (stereo not given)
  /	143.7	90.9	97.6
COc1ccccc1OCCSc1nc2ccccc2n1CC(N)=O
  -3.1	/	/	104.6
CN1c2ccsc2C(=O)/C(=C\Nc2ccc(F)cc2)S1(=O)=O
  -1.1	95.7	100.3	100.5
COc1ccc(NC(=O)CSc2nc3ccccc3n2Cc2cccnc2)cc1
  -9.7	/	/	96.7
Cc1cc(Cl)ccc1OCCCC(=O)NC1CCSC1=O (stereo not given)
  /	139.2	70.2	108.4
Cc1cc(C)cc(NC(=O)C2CCN(S(=O)(=O)c3c(C)noc3/C=C/c3ccco3)CC2)c1
  1.1	103.8	93.1	108.8
Cn1cc(CCC(=O)NC2CC2)c2ccccc21
  0.4	107.3	91.4	105.2
Cc1c(-c2ccccc2)oc2ccccc2c1=O
  50.5	116.6	89.3	105.6
Cc1cc(C)c(N=c2scc(C)n2Cc2ccccc2)c(C)c1
  /	76.9	69.3	101.0
COC(=O)c1ccc(NC(=O)CC2C(=O)N(c3ccccc3)C(=O)N2C2CCCC2)cc1 (stereo not given)
  /	99.9	82.0	107.1
COc1ccc(Nc2oc(/C=C/c3ccc(F)cc3)nc2C#N)cc1
  -11.1	112.2	86.3	105.3
N#CC(C#N)=c1s/c(=C\c2ccc(-c3ccc(S(=O)(=O)N4CCOCC4)cc3)o2)c(=O)n1Cc1ccco1
  -12.0	88.0	88.9	/
Cc1ccc(Cn2nnc3sc4c(c3c2=O)CCC(C)C4)cc1 (stereo not given)
  -25.2	97.4	88.2	100.3
CC1CCCC(C)N1C(=O)COC(=O)/C=C/c1cccs1 (stereo not given)
  -72.8	102.6	91.3	/
COc1ccccc1C(=O)NCC(c1ccc(Br)cc1)c1c[nH]c2ccccc12 (stereo not given)
  -27.3	/	/	99.1
O=C(CN1CCN(c2ccc(C(F)(F)F)cn2)CC1)c1ccccc1
  2.0	104.1	96.3	106.2
O=C(NC1CCCCCCC1)c1cc(=O)[nH]c2ccc(S(=O)(=O)N3CCCCC3)cc12
  0.4	105.0	79.8	97.2
COc1ccc(NC(=O)N(CCC(C)C)C(C)c2cccs2)c(OC)c1 (stereo not given)
  /	87.6	92.9	102.9
CCCNC(=O)c1cc2c(s1)CS(=O)(=O)C2
  /	93.2	87.8	103.9
c1ccc(Cc2nc(-c3ccccc3)no2)cc1
  -6.4	106.0	94.5	102.4
O=C(O)C1CCN(C(=O)CCc2ccccc2)CC1
  8.1	115.2	96.3	104.7
O=C(NCCN1CCCC1)C(c1ccccc1)N1Cc2ccccc2C1=O (stereo not given)
  -30.5	89.4	88.3	103.9
CCCCOC1CCC(OCCCC)OC1 (stereo not given)
  6.0	106.3	87.9	/
Cc1cc(C)c2c(=O)n(CC(=O)Nc3ccc(Br)c(C)c3)sc2n1
  -29.1	83.5	82.0	107.7
COc1ccccc1CNC(=O)CCS(=O)(=O)c1cccs1
  3.8	89.6	90.4	108.5

# The list goes on.
# Every second line gives: HCMV NEC inh	Sa growth inh	Sa growth inh second temp	GIV Gai3 FP
O=C(NCCOc1ccccc1-c1ccccc1)c1ccco1
  4.0	76.0	77.2	/
CCc1ccc(C2CC(=O)NC(SCC(=O)Nc3ccc(Br)cc3)=C2C#N)cc1 (stereo not given)
  -9.9	/	/	97.7
CC1=NN(C(=O)c2ccccc2)C(C)(NN(C)c2ccccc2)C1 (stereo not given)
  7.9	93.3	111.2	100.1
COc1ccc(CCN(C)C(=O)c2ccc3c(=O)n4c(nc3c2)CCCCC4)cc1OC
  -13.4	94.7	83.7	/
CCc1nnc(NC(=O)c2sc(C)nc2C)s1
  -23.0	83.5	84.7	98.5
O=C(CN1CCN(Cc2ccccc2)C(=O)C1=O)NCc1ccc2c(c1)OCO2
  -20.0	/	/	103.1
COc1ccc(CNC(=O)c2cc3c(-c4ccccc4F)nn(C)c3s2)cc1
  -17.9	103.9	76.8	101.3
CCCCN1C(=O)C(O)(c2c(C)[nH]c3ccccc23)c2ccccc21 (stereo not given)
  -21.2	96.4	91.4	94.5
Cc1nc2cc(Cl)ccc2c(=O)n1-c1nc2ccccc2[nH]1
  -16.3	/	/	107.2
Cc1nn(-c2ccccc2)nc1CNS(=O)(=O)c1cccs1
  -0.5	95.5	71.1	99.1
CC(C)(C)c1ccc(C(=O)CC(SC2CCCCC2)C(=O)O)cc1 (stereo not given)
  4.0	106.0	98.2	/
CCc1ccc(-n2c(=S)sc3c(=O)n(-c4ccccc4)c(SCC#N)nc32)cc1
  /	123.8	93.1	109.1
COc1ccc(-n2c(C)nc3c(C)nc(Nc4ccccc4)nc32)cc1
  -32.3	/	/	109.6
COC(=O)CCSCc1cn2ccsc2n1
  -26.6	88.3	88.8	/
O=C(O)CCC(=O)N1CCc2cc(S(=O)(=O)NCc3ccc(F)cc3)ccc21
  -16.5	89.6	91.1	97.8
Cc1ccccc1Cn1cc(CCC(=O)NCc2cccc(Br)c2)c2ccccc21
  /	108.0	94.4	109.8
Cc1cc(C)n2nc(CNS(=O)(=O)c3ccccc3)nc2n1
  1.1	98.6	91.5	100.3
CCOC(=O)N1CCN(Cc2cccc3ccccc23)CC1
  -6.0	101.3	114.8	108.3
CCOC(=O)c1ccc(Nc2nnc(-c3cc4cc(Br)ccc4oc3=O)s2)cc1
  -14.1	/	/	114.8
NC1=NC(=O)CC(C(=O)NCCc2ccccc2)S1 (stereo not given)
  -12.4	107.5	82.5	100.8

# In the list so far, 7 contain an NH in an aromatic ring:
# Every second line gives: HCMV NEC inh	Sa growth inh	Sa growth inh second temp	GIV Gai3 FP
CCCCc1c(C)[nH]n(-c2nc(C)c(C(=O)Nc3cccc(C)c3C)s2)c1=O
  -13.9	/	/	99.0
O=C(NC1CC1)c1ccc2c(c1)[nH]c(=S)n1c3ccccc3nc21
  -10.9	104.2	76.7	101.7
CC(C)c1ccc(NS(=O)(=O)c2ccc3[nH]cc(C(=O)NC4CCCCC4)c(=O)c3c2)cc1
  -8.9	97.2	64.9	102.3
COc1ccccc1C(=O)NCC(c1ccc(Br)cc1)c1c[nH]c2ccccc12 (stereo not given)
  -27.3	/	/	99.1
O=C(NC1CCCCCCC1)c1cc(=O)[nH]c2ccc(S(=O)(=O)N3CCCCC3)cc12
  0.4	105.0	79.8	97.2
CCCCN1C(=O)C(O)(c2c(C)[nH]c3ccccc23)c2ccccc21 (stereo not given)
  -21.2	96.4	91.4	94.5
Cc1nc2cc(Cl)ccc2c(=O)n1-c1nc2ccccc2[nH]1
  -16.3	/	/	107.2

# Further records follow:
# Every second line gives: HCMV NEC inh	Sa growth inh	Sa growth inh second temp	GIV Gai3 FP
COc1cc(C2N=C(N)Nc3nc4ccccc4n32)cc(OC)c1OC (stereo not given)
  -8.6	96.0	81.7	/
CCc1ccc(C(=O)On2c(-c3ccc(C(C)(C)C)cc3)nc3ccccc3c2=O)cc1
  12.4	/	/	107.1
COC(=O)CC1C(=O)NCCN1C(=O)NC1CCCCC1 (stereo not given)
  1.9	93.8	85.8	/
COC(=O)c1cccc(N2C(=O)C3C4C=CC(CC4)C3C2=O)c1 (stereo not given)
  -14.9	/	/	102.7
CS(=O)(=O)CS(=O)(=O)NNc1ncc(C(F)(F)F)cc1Cl
  -29.8	82.3	83.8	103.7
Cc1cccc(C(C)C)c1NC(=O)c1ccncc1
  -19.5	86.0	85.0	/
COc1ccc(OC)c(NC(=O)c2cccc3c2C(=O)N(C2CCCCC2)C3)c1
  -18.1	95.0	77.1	104.0
Cc1ccc(Nc2nc(C)c3nc(C)n(-c4ccc(C)cc4)c3n2)cc1
  -12.6	/	/	98.9
COC(=O)c1ccc(NC(=O)c2nn(C)c3c2COc2ccccc2-3)cc1
  -15.5	77.6	82.4	96.6
Cc1onc(-c2ccccc2Cl)c1C(=O)Nc1cc2c(cc1SC(C)C)n(C)c(=O)n2C
  -36.8	/	/	107.4
Fc1ccc(-n2cc(-c3ccccc3)c3c(NCCc4ccccc4)ncnc32)cc1
  /	85.1	87.0	103.7
CN(C)c1ccc(/C=C2\C(=O)ON=C2c2cccs2)c(Cl)c1
  -2.5	92.3	84.2	102.1
Cc1nc2sc3c(NC4CCCCC4)ncnc3c2c2c1COC(C)(C)C2
  /	108.6	87.8	101.7
Cc1nnsc1C(=O)n1nc(C(C)(C)C)cc1C(C)(C)C
  5.3	102.0	106.0	101.6
CCOc1ccc(NC(=O)N2CCOc3ccccc32)cc1
  -13.9	116.7	96.7	98.8
O=C1C2C3C=CC(CC3)C2C(=O)N1c1ccccc1F (stereo not given)
  -14.4	/	/	99.5
